Screening data as filed in PubChem.
ID4 binder: binders of human ID4 protein, primary screen, biochemical, small molecule microarray, single point; calls only; 1.2% of 31,000 active; DNA-binding protein inhibitor ID-4 (Homo sapiens), P47928; AID 624137, 2012; Flag-ID4 binding, fluorescence F/B;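 active means spot signal over background at p below 0.07 in all four prints; compounds were printed on slides so no solution concentration is given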;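 further: a binder raises fluorescence above local background on the spot; about 2 pmol printed per array spot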
Target sequence (P47928 whole entry, looked up): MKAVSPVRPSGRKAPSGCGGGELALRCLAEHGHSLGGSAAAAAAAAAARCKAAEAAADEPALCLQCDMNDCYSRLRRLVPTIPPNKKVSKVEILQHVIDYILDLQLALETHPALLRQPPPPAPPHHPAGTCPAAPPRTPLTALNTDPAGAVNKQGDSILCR
Calls only; i = inactive.

SMILES	ID4 binder
Cc1ccccc1CN(C)C[C@H]1OCc2cnnn2CCCC(=O)N([C@H](C)CO)C[C@H]1C	i
COCC(=O)N(C)C[C@H]1Oc2ncc(-c3ccc(F)cc3)cc2C(=O)N([C@@H](C)CO)C[C@H]1C	i
O=C(NCc1ccco1)C1CC(c2ccccc2O)=NO1 (stereo not drawn)	i
C[C@H](O)C#Cc1cnc2c(c1)C(=O)N([C@H](C)CO)C[C@H](C)[C@H](CN(C)Cc1cccc(F)c1)O2	i
C[C@@H]1CN([C@H](C)CO)C(=O)c2cc(-c3cccnc3)cnc2O[C@H]1CN(C)Cc1ccccc1	i
COC(=O)c1cc(NC(=O)COc2ccccc2Cl)cc(C(=O)OC)c1	i
CCCN(C)C[C@@H]1OCc2cn(nn2)CCCC(=O)N([C@H](C)CO)C[C@@H]1C	i
CN(C)C(=O)C[C@@H]1C=C[C@@H](NC(=O)C2CC2)[C@@H](CO)O1	i
O=C(COc1ccc(Cl)cc1)Nc1ccc2oc(-c3cccc(F)c3)nc2c1	i
CS(=O)(=O)Nc1ccc2c(c1)[C@@H]1C[C@@H](CC(=O)NCC(F)(F)F)O[C@@H](CO)[C@@H]1O2	i
CCOC(=O)c1c(NC(=O)CSc2ncn[nH]2)sc2c1CCCCC2	i
CC(C)(O)CC[C@@H](O)[C@](C)(O)C1CC[C@@]2(O)C3=CC(=O)C4C[C@@H](O)[C@@H](O)C[C@]4(C)C3CC[C@]12C (stereo partly drawn)	i
O=C(CC1(O)C(=O)N(Cc2ccccc2)c2ccc(Br)cc21)c1ccc2c(c1)OCCO2 (stereo not drawn)	i
Cc1ccc(C)c(NC(=O)COc2ccc(C(=O)Nc3ccccc3C)cc2)c1	i
CN(C)c1ccc2c(c1)[C@H]1C[C@H](CC(=O)NCc3cccc(F)c3)O[C@@H](CO)[C@H]1O2	i
C[C@@H]1CN([C@@H](C)CO)S(=O)(=O)c2ccc(C#CC3CCCCC3)cc2O[C@H]1CN(C)C	i
CCC(=O)N[C@H]1CC[C@H](CC(=O)NCc2cc(F)cc(F)c2)O[C@@H]1CO	i
C[C@@H]1CN([C@H](C)CO)C(=O)c2cc(C#CC3CCCCC3)cnc2O[C@@H]1CN(C)C(=O)c1ccncc1	i
CN(C)CC(=O)N[C@H]1C=C[C@H](CC(=O)NCc2ccccc2F)O[C@H]1CO	i
O=C(C[C@@H]1CC[C@H](NC(=O)C2CCC2)[C@H](CO)O1)NCC1CC1	i
COc1ccc(NC(=O)CSc2ccccc2)cc1NC(=O)c1ccco1	i
O=C(NCC[C@@H]1CC[C@H](NC(=O)C2CCC2)[C@H](CO)O1)c1ccc(F)cc1	i
O=S(=O)(NCc1ccccn1)c1ccc2ccccc2c1	i
C=CCn1c2ccccc2c2nnc(SCC(=O)N3c4ccccc4Sc4ccccc43)nc21	i
C[C@H]1CN([C@@H](C)CO)C(=O)c2cc(Br)cnc2O[C@H]1CN(C)C(=O)C1CCC1	i
SMILES	ID4 binder
Cc1cc(Cl)ccc1N(CC(=O)Nc1cccc(C)c1C)S(C)(=O)=O	i
O=C(CSc1ccccn1)Nc1ccc(Oc2ccccc2)cc1	i
c1coc(-c2nn3c(C4COc5ccccc5O4)nnc3s2)c1 (stereo not drawn)	i
CCCC#Cc1cnc2c(c1)C(=O)N([C@H](C)CO)C[C@H](C)[C@H](CN(C)Cc1ccc(C(=O)O)cc1)O2	i
Cc1c(F)cccc1NC(=O)CCC(=O)O	i
C[C@H]1CN([C@@H](C)CO)C(=O)c2cc(C#CC3CCCCC3)cnc2O[C@H]1CN(C)S(=O)(=O)c1ccccc1	i
COc1cccc(NC(=O)CNC(=O)c2cccs2)c1	i
Cc1sc2ncnc(SCC(=O)N3CCC(c4noc5ccc(F)cc45)CC3)c2c1C	i
CC(C)(Oc1ccc(Cl)cc1)C(=O)Nc1cc(-c2nc3ncccc3o2)ccc1Cl	i
Cc1cc(OCC(=O)Nc2ccccc2C(=O)NC2CCCCC2)ccc1Br	i
C[C@H](CO)N1C[C@H](C)[C@@H](CN(C)C(=O)Cc2ccccc2)Oc2ncc(-c3ccccc3)cc2C1=O	i
C[C@H](CO)N1C[C@H](C)[C@H](CN(C)Cc2ccncc2)Oc2cc(C3=CCCCC3)ccc2S1(=O)=O	i
CN(C)CC(=O)N[C@H]1C=C[C@@H](CC(=O)NCc2ccccc2F)O[C@@H]1CO	i
CSc1nnc(-c2ccccc2NC(=O)c2ccccc2)c(=O)[nH]1	i
Cc1ccccc1-c1cnc2c(c1)C(=O)N([C@H](C)CO)C[C@H](C)[C@H](CN(C)CC1CCOCC1)O2	i
C[C@@H](O)C#Cc1ccc2c(c1)O[C@H](CN(C)C(=O)CC1CC1)[C@@H](C)CN([C@@H](C)CO)S2(=O)=O	i
COc1cccc(C#Cc2cnc3c(c2)C(=O)N([C@H](C)CO)C[C@@H](C)[C@H](CN(C)C)O3)c1	i
C[C@H](CO)N1C[C@H](C)[C@H](CN(C)C(=O)Nc2cc(F)ccc2F)Oc2cc(C#CC3CCCC3)ccc2S1(=O)=O	i
COc1ccc(C(C)NC(=O)c2cc(-c3ccccn3)nc3ccc(Cl)cc23)cc1OC (stereo not drawn)	i
Cc1ccc(C(=O)CSc2nnc(-c3cccc(F)c3)n2-c2ccccc2)c(C)c1	i
CS(=O)(=O)N(CC(=O)Nc1cc(Cl)c(Cl)cc1Cl)C1CCCCC1	i
COCC#Cc1cnc2c(c1)C(=O)N([C@H](C)CO)C[C@H](C)[C@H](CN(C)C)O2	i
Cc1cc(C)cc(N(C(C)C(=O)O)S(C)(=O)=O)c1 (stereo not drawn)	i
C[C@@H]1CN([C@@H](C)CO)C(=O)c2cc(C#CC3CCCC3)cnc2O[C@@H]1CN(C)C(=O)C1CCCCC1	i
C[C@H]1CN([C@@H](C)CO)C(=O)c2cc(-c3cncnc3)cnc2O[C@H]1CN(C)C(=O)c1cccc(F)c1	i
SMILES	ID4 binder
CCC(=O)N(C)C[C@@H]1Oc2ncc(Br)cc2C(=O)N([C@H](C)CO)C[C@@H]1C	i
CO[C@@H](CN(C)Cc1ccc2c(c1)OCO2)[C@@H](C)CN(C(=O)c1ccccc1)[C@H](C)CO	i
CC(C)c1ccc(NC(=O)CSc2nnc(-c3ccccc3O)n2C)cc1	i
Cc1noc(C)c1S(=O)(=O)N(C)C[C@@H]1OCc2ccccc2-c2c(n(C)c3ccccc23)C(=O)N([C@@H](C)CO)C[C@@H]1C	i
C[C@H](CO)N1C[C@H](C)[C@@H](CN(C)C(=O)CN(C)C)Oc2ncc(/C=C/c3ccccc3)cc2C1=O	i
Cc1cc(C)c(C#N)c(SCC(O)CSc2ccc(Cl)cc2)n1 (stereo not drawn)	i
CCCN(C)C[C@H]1Oc2cc(-c3ccccc3OC)ccc2S(=O)(=O)N([C@@H](C)CO)C[C@H]1C	i
CCCN(C)C[C@H]1Oc2ncc(-c3cccc(C#N)c3)cc2C(=O)N([C@H](C)CO)C[C@@H]1C	i
O=C(N[C@@H]1CC[C@@H](CCn2cc(-c3ccccc3)nn2)O[C@@H]1CO)c1ccccc1F	i
COC(=O)c1ccccc1NC(=O)CN1CCOCC1	i
O=C(CSc1nnnn1-c1ccc(Cl)cc1)Nc1ccc(Cl)cc1Cl	i
Cc1ccc(NC(=O)C2CC(=O)n3ncnc3N2)cc1 (stereo not drawn)	i
CCCN(C)C[C@@H]1Oc2cc(C#Cc3ccccc3)ccc2S(=O)(=O)N([C@@H](C)CO)C[C@H]1C	i
Cc1cccc(OCC(=O)Nc2cccc(-c3nc4ccccc4[nH]3)c2)c1C	i
C[C@H]1CN([C@@H](C)CO)C(=O)c2cc(/C=C/c3ccccc3)cnc2O[C@@H]1CN(C)C(=O)C1CCC1	i
C[C@@H]1CN([C@H](C)CO)C(=O)c2cc(-c3ccc(F)cc3)cnc2O[C@@H]1CN(C)Cc1ccc(F)cc1	i
CCOc1ccc(S(=O)(=O)NCCN2CCOCC2)cc1C	i
C[C@H](CO)N1C[C@H](C)[C@@H](CN(C)C(=O)C2CC2)Oc2cc(/C=C/c3ccccc3)ccc2S1(=O)=O	i
COc1cc(NC(=O)C(C)Oc2ccc(Cl)cc2Cl)ccc1NC(=O)c1cc2ccccc2o1 (stereo not drawn)	i
C[C@@H](NC(=O)C[C@H]1C[C@H]2c3cc(NC(=O)NC4CCCC4)ccc3O[C@H]2[C@H](CO)O1)c1ccccc1	i
O=C(COc1ccc(CO)cc1)Nc1ccc(F)cc1	i
Cc1ccc(-c2cc(C(=O)NCCCN3CCOCC3)no2)cc1	i
O=C(CSc1nnc(-c2ccncc2)n1-c1ccc(Cl)cc1)Nc1ccccc1-c1ccccc1	i
C[C@@H]1CN([C@H](C)CO)C(=O)CCCn2cc(nn2)CO[C@H]1CN(C)Cc1cccc(C(F)(F)F)c1	i
C[C@H](CO)N1C[C@H](C)[C@H](CN(C)CC2CC2)Oc2cc(C3=CCCC3)ccc2S1(=O)=O	i
SMILES	ID4 binder
COC(=O)c1cc(-c2ccccc2)sc1NC(=S)NC(C)c1cc(OC)ccc1OC (stereo not drawn)	i
COc1ccc(CNC(=O)C[C@H]2C=C[C@H](NC(=O)c3ccc4c(c3)OCO4)[C@@H](CO)O2)cc1	i
COc1ccc(OCC(=O)Nc2ccccc2C(=O)Nc2ccccc2)cc1	i
CNC[C@H]1Oc2ncc(C#CCC3CCCC3)cc2C(=O)N([C@H](C)CO)C[C@H]1C	i
CCn1c2ccccc2c2cc(NC(=O)CCN3C(=O)c4ccccc4C3=O)ccc21	i
COc1ccc(C)cc1NC(=O)NCc1cc(C)n(C)n1	i
COCC(=O)Nc1ccc2c(c1)OC[C@@H](C)N(CCc1ccccc1)C[C@@H](C)[C@H](OC)CN(C)C2=O	i
COc1ccc(S(=O)(=O)N(C)C[C@H]2Oc3ncc(/C=C/c4ccccc4)cc3C(=O)N([C@@H](C)CO)C[C@H]2C)cc1	i
C[C@@H]1CN([C@@H](C)CO)C(=O)c2cc(C3=CCCC3)cnc2O[C@H]1CN(C)C(=O)C1CCCCC1	i
Cc1cc(C)c(NC(=O)CSc2nnc(-c3ccccc3)n2-c2ccc(F)cc2)c(C)c1	i
O=C1O[C@H](c2ccccc2)[C@H](c2ccccc2)N2[C@H]1[C@@H](C(=O)O)[C@]1(C(=O)Nc3ccc(C#CC4(O)CCCCCC4)cc31)[C@H]2c1ccc(OCCO)cc1	i
Cc1ccc(NC(=O)CSc2nc3ccccc3c(=O)n2-c2ccccc2)c(C)c1	i
CCN(CC(=O)Nc1ccc(OC)cc1)S(=O)(=O)c1ccc(C)cc1	i
C[C@@H]1CN([C@@H](C)CO)C(=O)c2c(c3ccccc3n2C)-c2ccccc2CO[C@H]1CN(C)C	i
Cc1nn(CC(=O)Nc2ccc(O)cc2)c(C)c1[N+](=O)[O-]	i
O=[N+]([O-])c1ccc(NC(=S)NCCCn2ccnc2)cc1	i
CNC[C@@H]1Oc2cc(-c3ccccc3F)ccc2S(=O)(=O)N([C@H](C)CO)C[C@H]1C	i
O=C(Nc1ccccc1Cl)C1CC(=O)n2ncnc2N1 (stereo not drawn)	i
COc1cc(NC(=O)CN(C)S(=O)(=O)c2ccc3ccccc3c2)c(OC)cc1Cl	i
O=C(CSc1nnc(-c2ccco2)n1-c1ccccc1)c1ccc(F)cc1	i
C[C@@H](O)C#Cc1cnc2c(c1)C(=O)N([C@@H](C)CO)C[C@H](C)[C@H](CN(C)Cc1cccc(F)c1)O2	i
CC(=O)Nc1sc2c(c1C(=O)O)CCc1ccccc1-2	i
Cc1noc(C)c1NC(=O)N(C)C[C@H]1Oc2cc(C#CCC(C)C)ccc2S(=O)(=O)N([C@@H](C)CO)C[C@H]1C	i
CCn1c2ccccc2c2cc(NC(=O)CN(C)S(=O)(=O)c3ccc(Cl)cc3)ccc21	i
COc1ccc(-c2ccc3c(c2)O[C@H](CN(C)C(=O)c2ccccc2F)[C@H](C)CN([C@@H](C)CO)S3(=O)=O)cc1	i

Of the compounds above, these have a Cl atom.
SMILES	ID4 binder
COC(=O)c1cc(NC(=O)COc2ccccc2Cl)cc(C(=O)OC)c1	i
O=C(COc1ccc(Cl)cc1)Nc1ccc2oc(-c3cccc(F)c3)nc2c1	i
Cc1cc(Cl)ccc1N(CC(=O)Nc1cccc(C)c1C)S(C)(=O)=O	i
CC(C)(Oc1ccc(Cl)cc1)C(=O)Nc1cc(-c2nc3ncccc3o2)ccc1Cl	i
COc1ccc(C(C)NC(=O)c2cc(-c3ccccn3)nc3ccc(Cl)cc23)cc1OC (stereo not drawn)	i
CS(=O)(=O)N(CC(=O)Nc1cc(Cl)c(Cl)cc1Cl)C1CCCCC1	i
Cc1cc(C)c(C#N)c(SCC(O)CSc2ccc(Cl)cc2)n1 (stereo not drawn)	i
O=C(CSc1nnnn1-c1ccc(Cl)cc1)Nc1ccc(Cl)cc1Cl	i
COc1cc(NC(=O)C(C)Oc2ccc(Cl)cc2Cl)ccc1NC(=O)c1cc2ccccc2o1 (stereo not drawn)	i
O=C(CSc1nnc(-c2ccncc2)n1-c1ccc(Cl)cc1)Nc1ccccc1-c1ccccc1	i
O=C(Nc1ccccc1Cl)C1CC(=O)n2ncnc2N1 (stereo not drawn)	i
COc1cc(NC(=O)CN(C)S(=O)(=O)c2ccc3ccccc3c2)c(OC)cc1Cl	i
CCn1c2ccccc2c2cc(NC(=O)CN(C)S(=O)(=O)c3ccc(Cl)cc3)ccc21	i

Carrying on.
SMILES	ID4 binder
COc1cc(Cl)c(C)cc1NC(=O)CN(C)S(=O)(=O)c1ccc(Br)cc1	i
COc1ccccc1NC(=O)N[C@H]1CC[C@H](CC(=O)NCc2ccc(Cl)c(Cl)c2)O[C@@H]1CO	i
CC(CC(N)=O)OC(=O)c1cc(Cl)cc(O)c1O (stereo not drawn)	i
O=C(O)/C=C/C=C/c1ccccc1	i
COc1cc(C)c(C(C)C)cc1S(=O)(=O)NC1CC(C)(C)NC(C)(C)C1	i
CC(=O)N[C@H]1CC[C@@H](CCNC(=O)C2CCCC2)O[C@H]1CO	i
COc1ccccc1-c1cnc2c(c1)C(=O)N([C@H](C)CO)C[C@H](C)[C@@H](CN(C)CC1CCCC1)O2	i
CCCN(C)C[C@H]1Oc2cc(C#Cc3ccccc3F)ccc2S(=O)(=O)N([C@@H](C)CO)C[C@H]1C	i

This is a subset (hit frequency here may not be typical).
